# Source: PubChem BioAssay
# AmpC nodet inh: Promiscuous and Specific Inhibitors of AmpC Beta-Lactamase (assay without detergent) | hit rate 1.8% among 71,000 | AmpC nitrocefin hydrolysis, absorbance 480 nm, no detergent; potencies from a single point are estimates | P00811 | Potency, µM (series often up to 28.7 µM), inactives show top-dose activity change, negative = inhibition; active = falling curve, for most hits resting on a single point; inconclusive = weak or doubtful change; inactive = flat or rising curve; further: % of control where 0% means no effect; about half of the hits show no inhibition at the top dose; a quarter of the inactives give rising signals
# Target sequence (P00811 whole entry, looked up): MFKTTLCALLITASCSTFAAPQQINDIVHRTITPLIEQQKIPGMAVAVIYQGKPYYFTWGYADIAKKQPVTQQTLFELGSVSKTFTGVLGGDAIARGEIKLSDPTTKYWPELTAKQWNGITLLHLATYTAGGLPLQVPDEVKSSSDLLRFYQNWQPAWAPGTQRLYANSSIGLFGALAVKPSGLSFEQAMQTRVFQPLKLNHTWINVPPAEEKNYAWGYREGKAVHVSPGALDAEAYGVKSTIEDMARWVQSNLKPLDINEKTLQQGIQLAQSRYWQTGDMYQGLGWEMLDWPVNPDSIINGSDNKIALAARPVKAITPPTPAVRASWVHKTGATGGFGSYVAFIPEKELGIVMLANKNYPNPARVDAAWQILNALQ
#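 AmpC, 20 mM phosphate pH 7.0; 15 min cpd preinc, RT; start with nitrocefin (800 uM stock); A480 kinetic read, 20 s intervals, 4 min. No-enzyme wells = negative control.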
# Numbers without * were called inactive; u = inconclusive; & = joins results of further samples; [ ] = remark or other dose. Potency means the concentration at half of the fitted maximal effect. This is a subset; the hit share may differ from the screen's.
Structure,AmpC nodet inh
O=S(=O)(O)c1ccc2c(N=Nc3cccc4ccccc34)c(O)c(S(=O)(=O)O)cc2c1,-3.8%[5.75 µM]
CCOC(=O)c1cccc(NC(=O)c2cnccn2)c1,6.0%
O=C(COc1ccccc1)NCCSc1ccccc1,0.5%
CCOC(=O)c1ccc(NC(=O)CSc2ncccn2)cc1,-4.0%
Cn1cccc1C(=O)N1CCC2(CCCN(Cc3ccc(C#N)cc3)C2)CC1,82.7%
CCCCn1nnnc1SCC(=O)Nc1sc2c(c1C#N)CCCC2,12.4%
Brc1ccc(-c2nnc3sc(CN4CCN(c5ccccc5)CC4)cn23)cc1,-22.1%
CSCCC(Nc1ncnc2ccc(Br)cc12)C(=O)O (centres undefined),-20.5%

# (list continues)
Structure,AmpC nodet inh
Cc1cc(C(=O)CSc2nnnn2C)c(C)n1-c1cccc(F)c1,33.1%
O=C(COc1ccc(CO)cc1)Nc1ccc(F)cc1,-0.3%
Cc1ccc(-n2nnc3c(=O)n(Cc4cc(C)ccc4C)cnc32)cc1,1.7%
Cc1ccc(-c2cc(C(=O)NCCCN3CCOCC3)no2)cc1,43.2%
O=C(O)CCCCCN1C(=O)c2ccc(C(=O)O)cc2C1=O,-8.4%
c1ccc(N2CCC3(CCNCC3)CC2)nc1,155.5%
C=CCn1c(SCc2cccc(C#N)c2)nnc1-c1ccccc1O,-7.9%
Cc1ccc(N(C(=O)c2ccncc2)C2C=CS(=O)(=O)C2)cc1 (centres undefined),-3.1%

# (next part)
Structure,AmpC nodet inh
O=C(CN1CCOc2ccccc21)N1CCC(Cc2ccccc2)CC1,77.1%
CCCCCc1c(C)nc(Nc2ccccc2)[nH]c1=O,-0.2%
CCOC(=O)N1CCC(Nc2c(NCCCN(C)Cc3ccccc3)c(=O)c2=O)CC1,3.98µM*[single pt active]
COCCNC(=O)[C@H](C)[C@H]1C[C@]1(C)[C@H](NC(=O)OCc1ccccc1)c1ccccc1,125.9%
CCCCOc1ccccc1NC(=O)Cn1c(-c2nonc2N)nc2ccccc21,-24.9%
Cc1ccc(NC(=O)C2CC(=O)NC(N3CCc4ccccc43)=N2)cc1 (centres undefined),-11.0%
Cc1c(NC(=O)CSc2ccccn2)c(=O)n(-c2ccccc2)n1C,-4.7%
CS(=O)(=O)N1CCC2(CC1)CN(Cc1ccccc1)C2,-0.9%

# Further results:
Structure,AmpC nodet inh
CCC(Oc1ccccc1)C(=O)Nc1ccc(S(=O)(=O)NCC2CCCO2)cc1 (centres undefined),21.4%
O=C(C1Cc2ccccc2O1)N1CCCCC1 (centres undefined),-11.8%
COc1cccc(OCC(O)CN2CCOCC2)c1 (centres undefined),-5.7%
Cc1sc2nc3n(c(=O)c2c1C)Cc1ccccc1-3,10.4%
NC(=O)C1(N2CCCCC2)CCN(C(=O)c2ccc(C#Cc3ccccc3)o2)CC1,124.9%
COc1ccccc1-c1nc(NCCc2cnc[nH]2)c2ccccc2n1,10.3%
CCN(CC)c1ncnc2c1ncn2[C@@H]1O[C@@H](COP(=O)(O)OP(=O)(O)C(Br)(Br)P(=O)(O)O)[C@H](O)[C@H]1O,-1.0%
CCn1c(=O)cc(OCC(=O)NCCCN2CCC(C)CC2)c2ccccc21,-1.5%

# (more compounds)
Structure,AmpC nodet inh
C=CCC1c2cccc(C(=O)O)c2C(=O)N1c1ccc(F)cc1 (centres undefined),21.8%
COc1ccc(C(=O)CCC(=O)O)cc1,11.1%
CCOc1ccc2oc(-c3ccccc3)c(C(=O)N3CCN(C)CC3)c2c1,129.8%
CCCCN(CC)CCNc1c(NC2CCN(C(=O)OCC)CC2)c(=O)c1=O,3.98µM*[single pt active]
Cc1ccccc1OCC(O)Cn1c(NCc2ccco2)nc2c1c(=O)n(C)c(=O)n2C (centres undefined),70.1%
CCSc1ccccc1C(=O)Nc1nncs1,-9.7%
COc1cc(OC)cc(C(=O)Nc2ccc(-c3nc4ccccc4o3)cc2)c1,75.9%
CCCOc1ccc(OCCSc2ncccn2)cc1,9.0%

# Additional entries follow:
Structure,AmpC nodet inh
CCCOc1c(OC)cccc1C1CC(=O)Nc2cc3c(cc21)OCCO3 (centres undefined),8.6%
COc1ccccc1CNc1cc(-c2ccccc2Cl)ncn1,26.2%
CCN1CCN(C(=O)c2cc3nc(-c4ccccc4)cc(C(F)(F)F)n3n2)CC1,82.0%
Cc1cccc(N2CCN(C(=O)Cc3c(C(=O)O)[nH]c4ccc(Cl)cc34)CC2)c1C,47.7%
S=C(NC1CCCCC1)N1CCC(c2cnc[nH]2)CC1,17.1%&7.1%
Cc1nc(CCNC(=O)COc2ccccc2)cs1,15.6%
CN(C)CCNc1nc2c(c(=O)n(C)c(=O)n2C)n1C,-2.4%[5.75 µM]
COc1ccc(C)cc1N(CC(=O)Nc1cccc(N(C)S(C)(=O)=O)c1)S(C)(=O)=O,47.3%

# (next part)
Structure,AmpC nodet inh
CCOC(=O)N1CCN(CC(=O)c2c(C)[nH]c3ccccc23)CC1,26.8%
O=C1C2CCCN2C(c2ccc(F)cc2)N1c1cccc(Cl)c1 (centres undefined),37.7%
O=c1cc(COn2nnc3ccc(C(F)(F)F)cc32)nc2sccn12,10.4%
Cc1ccc(C(N)=S)c(C)c1,-4.7%
CN1CCC(NC(=O)Cc2c(F)cccc2Cl)CC1,8.0%
Cn1cccc1C(=O)N1CCC2(CCCN(Cc3ccccc3)C2)CC1,43.3%
COc1ccc(C(=O)N2CCN(C3CCC(c4ccccc4)CC3)CC2)cc1OC (centres undefined),112.7%
O=c1c2ccccc2nnn1CSc1nnc(-c2cccnc2)n1-c1ccccc1F,13.3%

# (listing goes on)
Structure,AmpC nodet inh
CCOC(=O)C1=C(C)Nc2ncnn2C1c1cc(OC)ccc1OC (centres undefined),9.5%
O=C(NCc1cccs1)c1cc(-c2cccc(Cl)c2)on1,u
O=C(Nc1nnc(-c2ccccc2Cl)o1)c1ccco1,3.8%
COc1ccc(NC(=O)CS(=O)CC(=O)Nc2ccc(OC)c(OC)c2)cc1 (centres undefined),12.1%
COC(=O)CSc1nnc(SCc2ccccc2)s1,3.8%
COc1ccc(CCNC(=O)c2cccnc2)cc1OC,-0.4%
CCCCn1c(SCC(=O)NCc2ccco2)nnc1-c1ccoc1C,105.6%
N#Cc1ccc(CN2CC3(CCNCC3)C2)cc1,-6.4%

# Next records follow.
Structure,AmpC nodet inh
COc1ccccc1CNc1ncnc2ccc(-c3ccccc3C#N)cc12,36.8%
O=C(c1cc(O)c(O)c([N+](=O)[O-])c1)c1ccccc1F,-23.6%
Cn1cccc1C(=O)OCc1cc(Cl)cc2c1OCOC2,6.6%
CCc1c(C)nc(N)n2c(SCC(=O)Nc3ccccc3OC)nnc12,-2.7%
Cc1ccc(-n2c(O)c(C=NCc3cccnc3)c(=O)[nH]c2=O)cc1C,3.2%
C[N+](C)(CCCCCC[N+](C)(C)CCCN1C(=O)c2ccccc2C1=O)CCCN1C(=O)c2ccccc2C1=O,22.4%
Cc1cc(NS(=O)(=O)c2ccc(NC(=O)Cc3cccs3)cc2)no1,4.8%
Cc1noc(C)c1C(=O)NCc1ccco1,45.9%

# Going on with the list:
Structure,AmpC nodet inh
O=C(Nc1ccccc1)N1CCC2(CC1)CCN(C(=O)c1cnccn1)CC2,-0.1%
CC(=O)N[C@@H](C(=O)O)C(C)(C)SN=O,-7.6%&-6.8%
Cn1c(NCCCN2CCOCC2)nc2c1c(=O)n(Cc1ccc(Cl)cc1Cl)c(=O)n2C,150.4%
CCOC(=O)C(NC(=O)c1ccccc1)=C1C=C(C)OC(C)=C1,-1.1%
COc1cccc(NC(=O)Cn2c(SCC(=O)N3CCOCC3)nc3ccccc32)c1,38.6%
COc1cc2c(cc1OC)-c1nnc(-c3cccs3)n1C(C)(C)C2,3.98µM*[single pt active]
Cn1c(/C(C#N)=C2/CCCCCN2)nc2ccccc21,17.2%
COc1ccc(NC(=O)CSc2nnc(Cn3c(=O)sc4ccccc43)n2C)cc1,u

# Remaining list, next part:
Structure,AmpC nodet inh
Cc1cccc(CNc2nc(-c3ccccc3CN(C)C)nc3ccccc23)c1,84.2%
Cn1c(=O)cc(SCC(=O)N2CCC3(CC2)OCCO3)c2ccccc21,31.0%
CCOCCCNc1nc2c(c(=O)n(C)c(=O)n2C)n1CCCc1ccccc1,51.6%
O=C(CN1CCC(O)CC1)N1c2ccccc2C=Cc2ccccc21,39.7%
O=C(c1ccc(O)cc1)c1ccc(C(=O)O)c(C(=O)O)c1,-12.0%
CC(C)C(=O)Nc1cccc(C(=O)Nc2ccc3c(c2)OCO3)c1,-18.3%
CCOc1ccc(-n2c(COc3ccc(C)cc3)nnc2SCC(N)=O)cc1,109.3%
CC(C)(C)NC(=O)Nc1ccccc1C(N)=O,-11.7%

# Other records.
Structure,AmpC nodet inh
CC(C)N=c1cc2n(-c3ccc(Cl)cc3)c3ccccc3nc-2cc1Nc1ccc(Cl)cc1,-12.2%[12.8 µM]
O=c1c2c(nc3c(-c4cccc5ccccc45)c[nH]n13)CCC2,-12.0%
COC(=O)c1ccccc1S(=O)(=O)N1CCC(c2nc3ccccc3o2)CC1,77.1%
O=C(NC12CC3CC(CC(C3)C1)C2)N1CCC(O)(c2ccc3c(c2)OCO3)CC1,51.7%
Cc1ccc(S(=O)(=O)Cn2nnnc2CN2CCN(Cc3ccc4c(c3)OCO4)CC2)cc1,107.4%
COC(=O)C1(C)NC(c2ccc(O)cc2)C2C(=O)N(c3ccc4c(c3)OCCO4)C(=O)C21 (centres undefined),-13.8%
O=c1cc(-c2ccccc2O)oc2ccc3ccccc3c12,-14.0%
NNC(=O)c1ccncc1,-16.5%

# Other results follow:
Structure,AmpC nodet inh
c1ccc(CCc2nc(-c3ccccn3)no2)cc1,16.4%
O=C(Cn1c(-c2ccccc2)noc1=O)NCc1ccccc1,4.7%
O=C(NCc1ccccn1)c1cc2ccccc2oc1=O,0.3%
Clc1ccc(Cc2noc(Cc3ccccc3)n2)cc1Cl,-4.4%
Cc1onc(-c2ccccc2Cl)c1C(=O)Nc1cccc2nsnc12,-7.6%
COc1ccc(N2CCn3c2nc2c3c(=O)n(CCCc3ccccc3)c(=O)n2C)c(OC)c1,111.4%
Cc1cc(C)n(-c2nc(C)nc(NCc3ccccc3)n2)n1,43.0%
CC1CCCN(CCCNC(=O)C2CC(=O)N(c3ccc(F)c(Cl)c3)C2)C1 (centres undefined),-8.1%

# (listing goes on)
Structure,AmpC nodet inh
CC(C)c1nc2oc3c(NCc4cccnc4)ncnc3c2c2c1CCC2,61.2%
CC(=O)Nc1cc(NC(=O)C2C3C=CC(C3)C2C(=O)O)ccc1Cl (centres undefined),-1.9%
CCc1ccc2[nH]c(=O)c(CN(CCCN3CCOCC3)C(=O)Nc3ccc(Cl)cc3)cc2c1,145.6%
CCCc1c(C)c2cc(C)ccc2[nH]c1=O,-9.6%
Cc1ccc2[nH]c(=O)c(CN(CCCN3CCOCC3)C(=O)NC3CCCCC3)cc2c1,91.4%
CC(C)CCNC(=O)NC(=O)COC(=O)C1=COCCO1,6.1%
O=C(NC1CCS(=O)(=O)C1)c1cccc(S(=O)(=O)N2CCCCC2)c1 (centres undefined),144.8%
Cc1ccc(C)c(-n2nnnc2SCC(=O)Nc2cccc(-c3nnc4n3CCCCC4)c2)c1,130.2%

# Next section
Structure,AmpC nodet inh
COC(=O)[C@@]1(Cc2ccc(OC)cc2)[C@H]2c3cc(C(=O)N4CCCC4)n(CCc4c[nH]c5ccc(OC)cc45)c3C[C@H]2CN1C(=O)c1ccccc1,127.0%
CCN(c1ccccc1)S(=O)(=O)c1ccc(NCC2COc3ccccc3O2)nc1 (centres undefined),-18.1%
Cc1ccc(-c2cc(C(=O)NCc3ccc4c(c3)OCO4)[nH]n2)c(O)c1C,-19.7%
Cc1cccc(CS(=O)(=O)Cc2ccc(C(=O)NCc3cccnc3)o2)c1,-3.6%
CC1CC(=O)C=C(O)C1C(=O)OC(C)(C)C (centres undefined),3.8%
CCOC(=O)N1CCC(NC(=O)c2cc3c(-c4ccc(OC)c(OC)c4)nn(C)c3s2)CC1,129.7%
O=C(NC1CCCC1)C1CCCN1C(=O)Nc1ccccc1Cl (centres undefined),3.4%
CC(=O)N1CCCc2cc(S(=O)(=O)Nc3ccc4c(c3)OCO4)ccc21,-1.1%

# (continued)
Structure,AmpC nodet inh
CC(C)c1nnc(NC(=O)CCS(=O)(=O)c2nc(-c3cccs3)cc(C(F)(F)F)n2)s1,14.3%
CC(=O)c1cccc(NC(=O)NC(C)C2CCCO2)c1 (centres undefined),15.8%
Cc1noc(C)c1-c1cncnc1-n1ccnc1,0.7%
O=C(NCc1ccc2c(c1)OCO2)c1cccc(Cl)c1,-6.9%
COc1ccc(OC)c(NC(=O)C2CCCN2C(=O)OCc2ccccc2)c1 (centres undefined),20.2%
O/N=C1/C2C3CC4C5C3C1C5C1(OCCO1)C42 (centres undefined),-12.9%
O=C(NCc1ccco1)Nc1ccc(Br)cc1,-23.5%
Cc1cccc2cc3c(nc12)SC(=NCC1CCCO1)N(Cc1ccco1)C3 (centres undefined),-14.0%

# Following part:
Structure,AmpC nodet inh
Cc1cc(NCc2ccc(F)cc2Cl)n2nnnc2n1,-10.6%
CCCn1c(=O)c2ccccc2n2c(SCCOc3ccccc3)nnc12,62.9%
CCOC(=O)N1CCC(NC(=O)CCC(=O)N2CC(C)Oc3ccc(C)cc32)CC1 (centres undefined),78.7%
CCCOc1ccc(Cc2nn3c(=O)/c(=C/c4ccco4)sc3nc2=O)cc1,10µM*[single pt active]
CCN(CC)C(=O)c1cncc(C(=O)N(CC)CC)c1-c1ccccc1,-0.8%

# Part of the list above, reformatted:
CCOC(=O)N1CCC(NC(=O)CCC(=O)N2CC(C)Oc3ccc(C)cc32)CC1 (centres undefined)
  AmpC nodet inh: 78.7%
CCCOc1ccc(Cc2nn3c(=O)/c(=C/c4ccco4)sc3nc2=O)cc1
  AmpC nodet inh: 10µM*[single pt active]
